High-throughput results: PubChem BioAssay, several laboratories
B2AR ag – human beta-2 adrenergic receptor agonism by FAP; P07550; Am2.2-beta2AR cells, FAP receptor internalization, flow cytometry; reference of the scale not given here; response, % (no concentration beside the values); hit rate 0.43% among 340,000;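 active means response above a set limit, near 3 SD of response in nonfluorescent compounds, cut at about 42% in these data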;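 further: stock transfer was 100 nL into about 11 µL; a reference agonist was the positive control; negative values mostly stem from fluorescent compounds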
Target sequence (P07550 whole entry, looked up): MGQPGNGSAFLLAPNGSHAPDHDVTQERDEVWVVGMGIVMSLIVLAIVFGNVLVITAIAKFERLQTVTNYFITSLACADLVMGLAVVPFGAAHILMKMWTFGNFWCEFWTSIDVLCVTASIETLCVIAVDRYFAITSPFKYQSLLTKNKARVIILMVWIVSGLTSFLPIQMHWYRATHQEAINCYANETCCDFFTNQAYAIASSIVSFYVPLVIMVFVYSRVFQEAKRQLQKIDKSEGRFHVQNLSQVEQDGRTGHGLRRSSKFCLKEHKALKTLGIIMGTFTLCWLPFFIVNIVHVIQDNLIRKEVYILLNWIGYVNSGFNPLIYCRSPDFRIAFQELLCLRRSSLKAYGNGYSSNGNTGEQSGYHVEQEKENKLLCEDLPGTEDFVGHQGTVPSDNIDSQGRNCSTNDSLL
ALR inh – inhibitors of human sulfhydryl oxidase ALR. P55789. purified ALR, DTT oxidation, H2O2 HRP-luminol luminescence. inhibition, % (no concentration beside the values). hit rate 3.8% among 290,000. AID 485317;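 active means mean and each replicate at 75% or more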;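 further: stock transfer was 7.5 nL into about 7.5 µL; 0% = neutral wells and 100% = wells with inactivated enzyme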
HNF4A DNA FP – change in binding of human HNF4 alpha to DNA | hit rate 0.3% among 360,000 | P41235 | HNF4a-FITC DNA binding, fluorescence polarization, 1 h | AID 1224865 | activity change, % at 10 µM; in the data active means activity change above about 30%, passing the limit was not always enough;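 further: controls were the assay level and a saturating level of protein; the project sought stronger binding though the title names inhibitors; some compounds called inactive have numbers as strong as hits; positive values seem to mean higher polarization but the record does not say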
Target sequence (P41235 whole entry, looked up): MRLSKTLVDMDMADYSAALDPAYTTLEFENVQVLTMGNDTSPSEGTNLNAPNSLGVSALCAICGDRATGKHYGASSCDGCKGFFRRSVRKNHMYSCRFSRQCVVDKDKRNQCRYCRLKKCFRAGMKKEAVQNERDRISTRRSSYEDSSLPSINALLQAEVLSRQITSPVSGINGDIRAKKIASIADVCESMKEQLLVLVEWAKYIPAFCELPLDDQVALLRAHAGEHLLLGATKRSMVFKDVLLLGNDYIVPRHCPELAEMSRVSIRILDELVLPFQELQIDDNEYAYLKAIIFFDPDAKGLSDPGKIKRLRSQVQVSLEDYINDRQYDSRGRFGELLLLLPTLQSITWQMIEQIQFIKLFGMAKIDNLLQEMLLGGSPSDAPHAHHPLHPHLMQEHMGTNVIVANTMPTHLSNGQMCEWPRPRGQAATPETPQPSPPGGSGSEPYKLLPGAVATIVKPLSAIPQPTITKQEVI
FGF22 binding – binders of recombinant human FGF22 by thermal shift; Q9HCT0; SYPRO orange fluorescence; percent of sucrose octasulfate shift, DMSO zero; calls only at 9.99 µM; hit rate 1.5% among 340,000; AID 651658;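 active means melting point raised past a set limit in the mean and every replicate; three in four hits are not shown here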
Target sequence (Q9HCT0 whole entry, looked up): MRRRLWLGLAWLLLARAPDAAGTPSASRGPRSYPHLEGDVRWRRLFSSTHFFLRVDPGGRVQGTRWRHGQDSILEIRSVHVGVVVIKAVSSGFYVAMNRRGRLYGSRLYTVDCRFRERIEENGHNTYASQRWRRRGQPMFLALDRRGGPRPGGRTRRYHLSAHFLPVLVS
Ecoli rRNA inh – inhibits bacterial ribosomal RNA function over humanized ribosomes; E. coli WT GFP vs humanized-ribosome RFP mutants, fluorescence, 24 h; stronger effect = lower value; DMSO median 0, no signal -100; GFP signal change (wild-type ribosome), % (no concentration beside the values); hit rate 1.6% among 350,000; AID 720706;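 active means significant combined selectivity score with lowered wild-type GFP, culture density cut under 30%, mutant RFP and density less affected; inactive means any of these conditions unmet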; further: one replicate is shown; some compounds called inactive have numbers as strong as hits
UCH37 inh – inhibitors of human deubiquitinating enzyme UCH37; Q9Y5K5; purified proteasome/UCH37, Ub-AMC cleavage fluorescence; inhibition, % (concentration not given with the values); AID 588478; hit rate 0.33% among 330,000;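 active means mean of two replicates above 20%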;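 further: 0% = compound-free wells with enzyme and 100% = wells lacking proteasome; stock transfer was 100 nL into about 20 µL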
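Schedule: 30 min plus 25 min, room temperature / Material: human UCH37 within purified proteasomes / Technique: AMC fluorescence intensity at 355/460 nm / Buffer or medium: pH 7.4 Tris-HCl (50 mM) with ovalbumin, ATP-MgCl2, DTT / Controls: wells without proteasome as full block, compound-free enzyme plus substrate as uninhibited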
Ecoli growth – blocks Escherichia coli growth. OD600 absorbance (no concentration beside the values). OD600, 23 h; stronger effect = lower value. hit rate 0.21% among 330,000. AID 1053175;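 active means OD600 absorbance below the run mean of sample wells minus 3.6 SD, in any replicate, cut at about 0.56 in these data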;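 further: stock transfer was 300 nL into about 60 µL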
Ecoli rRNA inh OD600 – recorded beside Ecoli rRNA inh, whose call it bears; OD600 change, %; measured here: OD600 growth;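 optical density of the mix in the first replicate; 0 = DMSO median and -100 = no signal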
Ecoli rRNA inh RFP – recorded beside Ecoli rRNA inh, whose call it bears; RFP signal change, %; measured here: RFP humanized mutant strains;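 first replicate; 0 = DMSO median and -100 = no signal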
* marks the source's active call; other numbers are inactive results; i = inactive; nt = not tested or not shown; & = joins results of further samples. Only part of the results is shown, so the mix of outcomes need not match the whole.

Value order – B2AR ag | ALR inh | HNF4A DNA FP | FGF22 binding | Ecoli rRNA inh | Ecoli rRNA inh OD600 | Ecoli rRNA inh RFP | UCH37 inh | Ecoli growth
(1) C[C@H]1CN([C@@H](C)CO)S(=O)(=O)c2ccc(Br)cc2O[C@@H]1CN(C)S(=O)(=O)c1ccccc1
→ nt | nt | 4.3 | i | -35&-10 | -40&-26 | 1.9&6.8 | nt | nt
(2) CS(=O)(=O)N1CCN(c2ccc([N+](=O)[O-])c(NCc3ccccc3)c2)CC1
→ 2 | -3 | 3.8 | nt | nt | nt | nt | -4.5 | 0.73
(3) Cc1ccccc1CN(c1ccc(C(=O)N2CCc3ccccc3C2)cc1)S(C)(=O)=O
→ -2 | -2 | 1.2 | nt | nt | nt | nt | 3.0 | 0.7
(4) Cc1nonc1NC(=O)N1CCCC1
→ -4 | -7 | -0.5 | nt | nt | nt | nt | 1.4 | 0.7
(5) CC1Nc2ccccc2C(=O)N1NS(=O)(=O)c1ccccc1 (stereo unspecified)
→ -1 | nt | 1.2 | i | 2 | 3 | 11 | -32 | 0.72
(6) Cn1c(=O)c2c(nc(N3CCN(Cc4ccccc4)CC3)n2CC(=O)c2ccccc2)n(C)c1=O
→ -3 | 2 | -4.0 | nt | nt | nt | nt | 2.4 | 0.66
(7) Cn1c(=O)c(=O)n(C)c2cc(S(=O)(=O)N3CCCC3C(=O)Nc3ccc(F)cc3)ccc21 (stereo unspecified)
→ 0 | 4 | 3.2 | i | 1 | 9 | -2.2 | 1.8 | 0.74
(8) Cn1c(CCNC(=O)OC(C)(C)C)n[nH]c1=S
→ 11 | 95* | -1.9 | nt | nt | nt | nt | 1.3 | 0.66
(9) COc1cccc2sc(N(CCN(C)C)C(=O)c3ccc(S(=O)(=O)N4CCCC4)cc3)nc12
→ -6 | -21 | 4.3 | i | 3 | 6 | 0.8 | 2.8 | 0.67
(10) O=C(CN1CCN(S(=O)(=O)c2ccc(Br)s2)CC1)NC1CCCCC1
→ -1 | nt | 1.0 | i | -10 | -14 | 3.5 | 1.2 | 0.66
(11) O=C1c2cc(F)ccc2OC2(CCNCC2)C12CC(c1ccccc1)=NO2 (stereo unspecified)
→ 9 | 0 | -0.5 | i | 3 | -7 | -1.1 | 1.6 | 0.62
(12) COc1ccc(NC(=O)N2CCCC(c3nc(-c4ccc(F)cc4)no3)C2)cc1 (stereo unspecified)
→ -3 | -8 | -3.5 | nt | nt | nt | nt | -0.2 | 0.61
(13) Cc1[nH][nH]c(=O)c1C=Nc1ccc(C(F)(F)F)cc1
→ 5 | -38 | -0.8 | i | 4 | 1 | 0.1 | 8.2 | 0.7
(14) CCCCc1nnc(NC(=O)c2cccc(S(=O)(=O)N3CCN(C)CC3)c2)s1
→ -1 | -6 | -0.1 | i | 0 | 0 | -1.2 | 6.2 | 0.71
(15) CC(C)(CN1CCCC1)NS(=O)(=O)c1ccc(Cl)cc1
→ 18 | nt | -0.4 | i | 6 | 11 | 0.0 | 0.0 | 0.68
(16) COC(=O)C[C@H]1c2cc(C(F)(F)F)ccc2S(=O)(=O)N1Cc1ccccc1OC
→ -2 | nt | -2.0 | i | -19 | -24 | -10 | 0.6 | nt
(17) CCOC(=O)c1cc2c(=O)n3ccccc3nc2n(Cc2ccco2)c1=NC(=O)c1ccc(OC)cc1OC
→ 20 | 9 | -2.9 | i | 3 | 2 | 0.6 | -80 | 0.7
(18) COC(=O)c1cc(NC(=O)c2ccc(OC)cc2)c(=O)oc1C
→ -12 | -1 | 1.2 | nt | 24 | 21 | 14 | 1.2 | 0.72
(19) O=S(=O)(NC1CCCCC1)c1ccc(-c2csnn2)s1
→ -6 | -12 | 0.7 | nt | nt | nt | nt | 2.9 | 0.72
(20) CC1CCCC(NC(=O)Cn2c(Cl)nc3c2c(=O)n(C)c(=O)n3C)C1C (stereo unspecified)
→ -4 | -1 | 1.6 | i | -4 | 1 | -0.1 | 1.3 | 0.65
(21) O=C(CN1CCCCCC1)NCCN1C(=O)S/C(=C\c2ccccc2Cl)C1=O
→ -9 | -1 | -5.1 | i | -17 | -14 | 0.7 | 2.8 | 0.65
(22) Cc1nn(CC(=O)NCCC2=CCCCC2)c(C)c1S(=O)(=O)N(C)C
→ 0 | -1 | -2.7 | i | 8 | 9 | 0.8 | 8.1 | 0.69
(23) C=CCSc1nnc(NC(=O)c2c(CC)noc2C)s1
→ -4 | 5 | 2.3 | nt | -6 | -11 | -2.5 | 1.6 | 0.68
(24) CC(=O)NC(c1ccccc1)c1cc([N+](=O)[O-])c2cccnc2c1O (stereo unspecified)
→ 3 | nt | 4.5 | nt | 7 | -13 | 5.1 | 19 | 0.69
(25) CC1CCCN(C(=O)C(=O)Nc2ccc3nc4n(c(=O)c3c2)CCCCC4)C1 (stereo unspecified)
→ -9 | -8 | 1.8 | i | 3 | -10 | -3.2 | 5.6 | 0.74
(26) CCCCOCCCNC(=O)C[C@@H]1C[C@@]2(C(=O)OC)CC(C)(C)CC=C2N(Cc2cccc3ccccc23)C1=O
→ nt | nt | -0.9 | i | 4 | 11 | 3.1 | nt | nt
(27) CNc1nc(C)nc(-c2ccccc2O)n1
→ -1 | -17 | -0.5 | i | 4 | -3 | -0.2 | -6.6 | 0.72
(28) Cc1cc(C)nc(NS(=O)(=O)c2ccc(CC(C)C)cc2)c1
→ -2 | -1 | -0.8 | i | -5 | 3 | 2.8 | -3.5 | 0.73
(29) Cc1ccc(C(=O)NCc2ccc3c(c2)OCO3)o1
→ 1 | 9 | -5.3 | i | -2 | -2 | -0.7 | 2.7 | 0.7
(30) CC(=O)c1ccc(NC(=S)NC(=O)Cc2ccc(Cl)cc2)cc1
→ -1 | -9 | -1.7 | i | 22 | 13 | 3.8 | 2.9 | 0.73
(31) CC(C)OC(=O)/C(C#N)=C\c1cccnc1
→ 3 | -6 | 1.9 | i | 11 | 16 | 2.8 | 4.3 | 0.65
(32) c1cncc(CNc2nc(N3CCOCC3)nc(N3CCOCC3)n2)c1
→ -12 | -5 | 1.1 | i | 7 | 4 | 2.8 | 6.4 | 0.7
(33) COc1ccc(-c2cc(C(F)(F)F)nc(SCC(=O)Nc3ccc4c(c3)OCO4)n2)cc1
→ 4 | -7 | -3.6 | nt | nt | nt | nt | 1.9 | 0.67
(34) COc1ccc(C(c2oc(CO)cc(=O)c2O)c2oc(CO)cc(=O)c2O)cc1
→ -9 | 27 | -1.0 | i | -2 | -4 | 5.4 | 4.0 | 0.73
(35) CC1(C)Cc2c(C#N)c(SCCO)nc(N3CCOCC3)c2CO1
→ 4 | -8 | -2.2 | i | 2 | 5 | -1.1 | 2.1 | 0.64
(36) Cc1noc(C)c1S(=O)(=O)N(CC(=O)NC1CCCC1)c1ccc(C(C)C)cc1
→ -6 | -10 | 0.0 | i | 11 | 2 | -0.7 | -1.4 | 0.71
(37) O=C1c2ccccc2C(=O)N1c1nc2nccc(-c3ccccc3)n2n1
→ -10 | 1 | -1.9 | nt | nt | nt | nt | -4.7 | 0.68
(38) O=C(NC(=S)N1CCN(Cc2ccccc2)CC1)c1ccco1
→ -1 | -4 | -4.5 | i | 1 | 9 | 1.0 | -0.7 | 0.66
(39) COc1ccc(NC(=O)c2cncc(Br)c2)cc1S(N)(=O)=O
→ -6 | -13 | -2.5 | i | 8 | 7 | -4.0 | -0.4 | 0.71
(40) CCOC(=O)c1c(C)oc2c1cc(O)c1ccccc12
→ -5 | -26 | -1.6 | nt | nt | nt | nt | 3.0 | 0.68
(41) Cc1ccc(S(=O)(=O)N2CCCC(C(=O)NC3CC3)C2)cc1 (stereo unspecified)
→ 1 | nt | 1.7 | i | 1 | -10 | -3.0 | 4.2 | 0.66
(42) CCN(CC(=O)Nc1ccc(NC(C)=O)cc1)C(=O)c1ccc(S(=O)(=O)N2CCCC2)cc1
→ 2 | nt | -1.5 | i | -56 | -78 | -17 | 2.3 | 0.65
(43) O=C(OC(C(=O)NCc1ccc2c(c1)OCO2)c1ccc(Cl)cc1)c1ccco1 (stereo unspecified)
→ -2 | -6 | 0.1 | nt | nt | nt | nt | 0.7 | 0.7
(44) COc1ccc(NC(=O)COc2ccc3c(c2)OCO3)cc1
→ 1 | -6 | 0.4 | i | -4 | 2 | -2.4 | 1.9 | 0.66
(45) COc1ccccc1-c1c(C)nn2c(N)c(-c3ccc(Cl)cc3)cnc12
→ 0 | -10 | -0.4 | i | 12 | 10 | 3.4 | -28 | 0.62
(46) CCN(CC)C(=O)CSc1nc2ncc(Br)cc2[nH]1
→ -6 | -5 | 5.9 | nt | nt | nt | nt | 3.6 | 0.76
(47) Cc1ccc(S(=O)(=O)N2CCCCC2)cc1NC(=O)c1ccco1
→ nt | nt | -2.5 | i | 4 | 4 | -1.7 | nt | nt
(48) Cc1cc(Br)cn2c(Cc3ccccc3C(F)(F)F)c(-c3cccc(Br)c3)nc12
→ nt | nt | -4.6 | i | -10 | -6 | 7.2 | nt | nt
(49) CCOc1ccccc1N1CC(C(=O)N2CCOCC2)CC1=O (stereo unspecified)
→ 6 | 7 | -4.7 | i | 9 | 18 | 0.5 | 0.7 | 0.65
(50) COc1ccc(-c2nnc(N3CCOCC3)c3ccccc23)cc1
→ -1 | -7 | 2.6 | i | -1 | -8 | -2.9 | -0.6 | 0.69
(51) Cc1ccc(-c2nc(CSCC(=O)NCC3CCCO3)c(C)o2)cc1 (stereo unspecified)
→ 0 | 95* | 2.7 | i | 0 | -6 | -2.1 | 0.6 | 0.68
(52) Cc1ccc(C2OC(=O)C=C2c2ccccc2)cc1 (stereo unspecified)
→ -1 | nt | -1.0 | i | -10 | -4 | 5.1 | 24* | 0.7
(53) Cc1ccc(CN(C(=O)c2ccc([N+](=O)[O-])cc2)C2CCS(=O)(=O)C2)o1 (stereo unspecified)
→ 3 | -15 | -0.5 | i | 18 | 9 | 2.2 | 2.4 | 0.69
(54) COc1ccccc1NC(=S)N(CCc1nc2cc(C)c(C)cc2[nH]1)Cc1cccnc1
→ -5 | -2 | -3.1 | i | -17 | -9 | -0.9 | 2.2 | 0.64

Among those listed so far, these contain a Cl atom:
Value order – B2AR ag | ALR inh | HNF4A DNA FP | FGF22 binding | Ecoli rRNA inh | Ecoli rRNA inh OD600 | Ecoli rRNA inh RFP | UCH37 inh | Ecoli growth
(15) CC(C)(CN1CCCC1)NS(=O)(=O)c1ccc(Cl)cc1
→ 18 | nt | -0.4 | i | 6 | 11 | 0.0 | 0.0 | 0.68
(20) CC1CCCC(NC(=O)Cn2c(Cl)nc3c2c(=O)n(C)c(=O)n3C)C1C (stereo unspecified)
→ -4 | -1 | 1.6 | i | -4 | 1 | -0.1 | 1.3 | 0.65
(21) O=C(CN1CCCCCC1)NCCN1C(=O)S/C(=C\c2ccccc2Cl)C1=O
→ -9 | -1 | -5.1 | i | -17 | -14 | 0.7 | 2.8 | 0.65
(30) CC(=O)c1ccc(NC(=S)NC(=O)Cc2ccc(Cl)cc2)cc1
→ -1 | -9 | -1.7 | i | 22 | 13 | 3.8 | 2.9 | 0.73
(43) O=C(OC(C(=O)NCc1ccc2c(c1)OCO2)c1ccc(Cl)cc1)c1ccco1 (stereo unspecified)
→ -2 | -6 | 0.1 | nt | nt | nt | nt | 0.7 | 0.7
(45) COc1ccccc1-c1c(C)nn2c(N)c(-c3ccc(Cl)cc3)cnc12
→ 0 | -10 | -0.4 | i | 12 | 10 | 3.4 | -28 | 0.62
